Sa ugtP lethal = growth inhibition of ugtP-null S. aureus, primary screen, RN4220 ugtP deletion, OD600. 16 h; some inactives read as strong as hits. growth inhibition, % (concentration not given with the values). 330,000 compounds, 0.54% hits. AID 1259309, 2017;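 active means z-score under -3 and OD600 up to 0.15 on both plates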;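 further: plate controls were untreated wells for no effect and antibiotic for full effect; wells of about 80 µL received 100 nL stock; the first replicate is given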
Mtb hypoxia rep = PubChem AID 1159583; M. tuberculosis hypoxia-regulated fluorescent reporter, fluorescence; fluorescence inhibition, % (test concentration not listed); 300,000 compounds, 0.1% hits;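 active means 35 to 45% if threefold the growth effect, above 45% if 1.5-fold the growth effect; inactive means the rest, general growth blockers included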;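 further: wells of about 50 µL received 100 nL stock; 0% = vehicle wells and 100% = reference inhibitor wells; whole bacteria with a GFP reporter of the hypoxia response; strong numbers were not always called active; many hits fall short of the cut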
Autofluor counter = compound fluorescence in toxin protease inhibitor counterscreen. compound autofluorescence counterscreen, microsphere flow cytometry; active compounds read high. fluorescence intensity (concentration not given with the values). 360,000 compounds, 3.1% hits;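 active means at least 3 SD above the mean of all compounds, about 16000 in these data; inconclusive means too few beads counted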;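 further: 100 nL of 1 mM stock went into each well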
BJeLR lethal = MLPCN primary cell-based screen for lethality selective to Ras in HRASV12 cells; BJeLR (HRASV12) viability, CellTiter-Glo ATP luminescence, 48 h; reference of the scale not given here; inhibition, % (no concentration beside the values); 300,000 compounds, 0.17% hits; AID 1554, 2009;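 active means replicate mean above 50%; inconclusive means above 50% but judged a plate artefact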;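 further: 50 nL library stock added to about 25 µL; numbers are from one replicate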
Sa RN4220 lethal = growth inhibition of S. aureus RN4220, primary screen, OD600; 16 h; AID 1259311, 2017; inhibition, % (test concentration not listed); 330,000 compounds, 0.33% hits;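 active means z-score of -3 or lower and OD600 up to 0.18 on both plates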;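 further: plate controls were untreated cells for no effect and reference antibiotic for full effect; stock transfer was 100 nL into about 80 µL; one replicate is shown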
PrP UTR inh = inhibition of PrP 5' UTR reporter expression | cell-based PrP 5' UTR mRNA reporter, plate reader | inhibition, % (test concentration not listed) | 340,000 compounds, 0.35% hits | AID 488862, 2010;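 active means every replicate at 50% or more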;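 further: 0 = median of the neutral control wells; tested in H4 reporter cells; numbers are from one replicate; inactives centre near -14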
Mtb hypoxia rep growth = further read-out of Mtb hypoxia rep, marked with its call; growth inhibition, %; measured here: M. tuberculosis growth (absorbance);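 0% = vehicle and 100% = reference antibiotic; read after six days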
* marks the source's active call; other numbers are inactive results; u = inconclusive; x = no result given; & = joins results of further samples.

molecule,Sa ugtP lethal,Mtb hypoxia rep,Mtb hypoxia rep growth,Autofluor counter,BJeLR lethal,Sa RN4220 lethal,PrP UTR inh
CCCCNc1c(C(=O)OCC)c(=O)[nH]c2ccccc12,4,x,x,3651,1,4.2,-7
Cc1c(C(=O)N(C)c2ccccc2Cl)cnn1-c1ccccc1,2,9,9,2982,-9,6.4,-10
CN(C)c1ccc(C2Nc3ccccc3C(=O)N2CCN2CCNC2=O)cc1 (stereo not given),2,-12,6,5804,2,3.1,-19
N#CC1(NC(=O)COC(=O)c2cc(O)c3ccccc3c2O)CCCCC1,5,-3,1,4354,7,3.0,-8
COC(=O)CCC(=O)NC1CC(C)(C)Cc2c1cnn2-c1ccc(F)cc1 (stereo not given),3,-6,6,3107,-7,2.8,-22
O=C(NN=Cc1ccc(COc2ccc(Br)cc2)o1)c1ccco1,-4,3,6,x,x,7.1,x
COc1ccccc1CNS(=O)(=O)c1c(C)nc2sccn2c1=O,2,8,4,5789,1,6.2,-21
COc1cccc(C(=O)CSc2nnc(-c3ccco3)n2CC2CCCO2)c1 (stereo not given),-7,x,x,4330,-3,2.4,-28
CCOC(=O)C1C2COc3ccc(OC)cc3C2N2C(=O)c3cc(F)c(F)cc3NC(=O)[C@@]12C (stereo not given in full),3,15,11,x,x,2.6,x
CC1CCN(C(=S)c2cccc([N+](=O)[O-])c2)CC1,3,7,14,2568,2,3.0,-21
COc1ccc(OC)c(-c2nn(-c3ccccc3)cc2C(=O)NCC(c2ccco2)N2CCCC2)c1 (stereo not given),9,-4,-3,4791,x,2.9,-6
COc1cccc2sc(NC(=O)c3ccc(Br)s3)nc12,-4,x,x,2691,4,-4.4,-44
Cc1ccc(-c2noc(N=O)c2NO)cc1,2,15,2,x,-26,8.5,-1
COc1ccc2oc(=O)c(C(=O)NCC3CCCO3)cc2c1 (stereo not given),-6,11,1,4939,-11,-1.1,-26
O=C(c1ccc(C(F)(F)F)cc1)C1CCCN(Cc2ccncc2)C1 (stereo not given),3,14,15,5101,19,14,-16
CCOC(=O)c1cc(-c2ccc(/C=C3/C(=O)NC(=O)C(C#N)=C3C)o2)ccc1Cl,2,16,6,8868,11,12,-13
O=C(CSc1nc2ccccc2[nH]1)N1CCN(c2ccccc2)CC1,1,-11,1,9319,2,5.1,-32
CC1=C(C(=O)OCC2CCCO2)C(c2ccncc2)C2=C(CCCC2=O)N1 (stereo not given),2,-4,9,3311,8,15,-11
CCOC(=O)N1CCC(NC(=O)C2CCCN2C(=O)OCc2ccccc2)CC1 (stereo not given),4,x,x,3699,0,0.3,-18
Fc1ccc(NC(=S)Nc2cc(-c3ccccc3)[nH]n2)cc1Cl,80,12,12,4484,-1,72,-6
N#C/C(=C/c1cccc(O)c1)C(=O)NCc1ccc(Cl)cc1,-4,8,1,3786,0,5.2,-5
Cc1csc2c(N(C)CCO)ncnc12,-1,17,14,5998,-10,1.5,-8
O=[N+]([O-])CC(c1ccc(F)cc1)c1c[nH]c2ccccc12 (stereo not given),-18,-2,3,3594,4,1.8,-49
CC(O)CNc1nc2ccccc2n1CC(=O)N1CCN(Cc2ccccc2)CC1 (stereo not given),6,9,0,4878,11,3.3,-26
CC(=O)Nc1ccc(OCc2ccc(S(=O)(=O)Cc3ccccc3)cc2)cc1,3,20,0,5026,2,4.4,-24
COC(=O)Cc1ccc(OC(=O)C2CCN(S(=O)(=O)c3ccc(OC)c(OC)c3)CC2)cc1,-6,12,4,3732,x,5.6,-17
CCOC(=O)N1CCN(C(=O)Cn2nc(C)n3nc(-c4ccc(OC)cc4)cc3c2=O)CC1,-8,-8,7,5018,-2,-0.3,-25
O=C(CCNC(=O)c1ccc(Br)cc1)Nc1ccccc1N1CCCC1,-2,-3,6,5422,-3,-1.4,-27
CCn1c(SCc2cc(=O)n3ccsc3n2)nc2ccccc21,4,11,6,3978,1,7.6,-25
CC(C)c1nnc(NC(=O)COc2ccc3c(c2)OCO3)s1,8,-6,-6,3895,-9,4.0,-32
CCOC(=O)N1CCN(Cc2ccc(OCC(O)CN3CCCCC3)cc2)CC1 (stereo not given),7,-2,14,3984,4,3.4,-34
COc1ccccc1CNC(=O)c1ccc(NC2=NC3CS(=O)(=O)CC3S2)cc1 (stereo not given),2,-2,9,6019,-15,5.0,-12
COc1ccc(CNC(=O)CN(Cc2ccccc2)S(=O)(=O)c2ccc(Cl)cc2)cc1,4,2,10,22889*,14,-0.5,-9
CSc1ccccc1C(=O)Nc1cccc(C(C)O)c1 (stereo not given),2,9,12,7970,15,1.8,-13
COc1cc(CCCN2C(N)=NC[C@@H]2Cc2ccc(O)cc2)cc(OC)c1OC,x,x,x,4342,4,x,0
CCOC(=O)C(=O)N=Nc1c(O)n(C)c2ccccc12,6,8,8,4039,-2,-0.2,-13
Cc1cc(C2=NNC(=NCCc3ccccc3)SC2)c(C)n1-c1c(C)n(C)n(-c2ccccc2)c1=O,16,-5,8,4953,0,-0.9,-15
COc1ccc(-c2nnn(CC(=O)c3ccccc3)n2)cc1OC,2,9,11,10906,-3,4.5,-2
CCCNC(=O)COC(=O)/C(C#N)=C/c1cc(C)n(CCC)c1C,-7,-4,-4,3269,18,-0.7,-12
CC(=O)OC1(c2ccccc2)CCN(C)C(C)C1C (stereo not given),-3,15,8,2499,8,-10,-15
CCOC(=O)CN1C(=O)C(=O)N(Cc2c(C)cc(C)cc2C)C1=O,-1,12,7,3447,-6,0.6,-19
COc1ccc(C(=O)c2c[nH]c(C(=O)NCC3CCCO3)c2)cc1 (stereo not given),-1,x,x,4290,-6,-3.7,-11
CSCC[C@H](N)C(=O)N1CCC(C(=O)N[C@H](C)C(=O)Nc2ccc(C(C)C)cc2)CC1,1,-4,-7,3931,-5,0.9,0
CCOCCCNC(=O)Cc1ccc(F)cc1,2,-12,5,x,7,1.5,x
O=C(c1ccc(Cl)c([N+](=O)[O-])c1)N(Cc1ccco1)C1CCS(=O)(=O)C1 (stereo not given),11,4,1,u,7,0.3,-25
O=C(O)c1ccccc1-c1ccccc1C(=O)Nc1ccc(-c2nc3cc(Cl)ccc3o2)cc1,52,x,x,4692,2,25,-26
CCOC(CNC(=O)c1ccc2nc(N3CCC(C)CC3)sc2c1)OCC,2,9,17,3892,5,2.6,-85
COc1ccc(CCC(C)NCc2ccc(C(F)(F)F)cc2)cc1 (stereo not given),1,15,8,4081,25,2.7,-24
CC(C)(C)c1cc(C(=O)NN=Cc2ccc([N+](=O)[O-])s2)n[nH]1,101*,9,14,x,x,101*,x
CCCNc1c(NC(=O)COc2ccc(Cl)cc2)c(=O)oc2ccccc12,10,11,3,5273,3,0.0,-17

Going on with the list:
molecule,Sa ugtP lethal,Mtb hypoxia rep,Mtb hypoxia rep growth,Autofluor counter,BJeLR lethal,Sa RN4220 lethal,PrP UTR inh
COc1ccc(OC)c(NC(=O)CCN2CCC(C)CC2)c1,3,2,1,5654,2,0.3,-15
CC(C)CCNC(=O)CCSCCC(=O)NCCC(C)C,-3,18,10,2618,-2,-0.1,-7
Cc1cccc(C)c1NC(=S)N(Cc1cccnc1)Cc1ccccc1Cl,-1,7,1,4204,2,5.0,-15
CC(=O)N(C)c1ccc(NC(=O)c2ccc([N+](=O)[O-])cc2Cl)cc1,1,11,4,1904,3,4.1,-2
Nc1nnnn1N=C1CCCCC1,-2,16,11,3258,-7,8.1,-10
NNC(=O)c1nn(-c2ccccc2)cc1O,1,15,4,x,0,-1.1,x
O=C(N/N=C/c1ccc(N2CCOCC2)cc1)c1cccs1,x,x,x,4500,-2,x,-64
CCCCC(CC)CNC(=O)c1ccc2c(c1)OCO2 (stereo not given),14,x,x,9119,-3,3.3,-20
COc1cccc(NC(=O)C(=O)c2cn(CC(=O)N3CCOCC3)c3ccccc23)c1,-1,9,-3,5993,13,-1.4,-6
COc1ccccc1N(CN1CCCC1=O)C(=O)c1c(F)cccc1F,5,2,-7,4400,-1,10,-17
O=[N+]([O-])c1cccc(Cl)c1N1CCOCC1,-2,-7,-1,9903,-1,9.9,-21
Cn1nc(C(=O)NCc2ccccn2)c2ccccc2c1=O,-2,7,6,4331,-13,2.1,-31
CC(Sc1nncs1)C(=O)Nc1ccc(Cl)cn1 (stereo not given),3,6,5,2095,0,1.9,-11
COc1ccc(OC)c(N2C(=O)CC(Cc3ccc(Cl)cc3)C2=O)c1 (stereo not given),8,5,5,4517,7,3.6,-23
C#Cc1ccc(C2C=C(C(=O)NCc3ccccc3)OC(OCCCCO)C2)cc1 (stereo not given),-11,6,2,x,x,-5.2,x
CCOC(=O)c1c(-c2ccc(F)cc2)csc1NC(=O)CCN1C(=O)c2ccccc2C1=O,8,18,5,2406,14,8.0,-20
O=C(COC(=O)c1nc(Cl)ccc1Cl)Nc1cccc(S(=O)(=O)N2CCOCC2)c1,2,-7,9,3856,x,1.3,-13
COc1ccc(NC(=O)c2ccc(CNS(=O)(=O)c3cccc(OC)c3)cc2)cc1,-2,x,x,2867,3,-1.5,-2
CS(=O)(=O)N(CC(=O)NCCSc1ccc(Cl)cc1)c1ccc2c(c1)OCO2,-14,x,x,5553,1,-2.5,-21
Cc1cccc(NC(=O)CN2CCN(C(=O)c3ccc(OCc4cn5ccccc5n4)cc3)CC2)c1C,2,7,7,u,x,0.1,x

13 successive compounds already listed, quoted:
molecule,Sa ugtP lethal,Mtb hypoxia rep,Mtb hypoxia rep growth,Autofluor counter,BJeLR lethal,Sa RN4220 lethal,PrP UTR inh
CCCCC(CC)CNC(=O)c1ccc2c(c1)OCO2 (stereo not given),14,x,x,9119,-3,3.3,-20
COc1cccc(NC(=O)C(=O)c2cn(CC(=O)N3CCOCC3)c3ccccc23)c1,-1,9,-3,5993,13,-1.4,-6
COc1ccccc1N(CN1CCCC1=O)C(=O)c1c(F)cccc1F,5,2,-7,4400,-1,10,-17
O=[N+]([O-])c1cccc(Cl)c1N1CCOCC1,-2,-7,-1,9903,-1,9.9,-21
Cn1nc(C(=O)NCc2ccccn2)c2ccccc2c1=O,-2,7,6,4331,-13,2.1,-31
CC(Sc1nncs1)C(=O)Nc1ccc(Cl)cn1 (stereo not given),3,6,5,2095,0,1.9,-11
COc1ccc(OC)c(N2C(=O)CC(Cc3ccc(Cl)cc3)C2=O)c1 (stereo not given),8,5,5,4517,7,3.6,-23
C#Cc1ccc(C2C=C(C(=O)NCc3ccccc3)OC(OCCCCO)C2)cc1 (stereo not given),-11,6,2,x,x,-5.2,x
CCOC(=O)c1c(-c2ccc(F)cc2)csc1NC(=O)CCN1C(=O)c2ccccc2C1=O,8,18,5,2406,14,8.0,-20
O=C(COC(=O)c1nc(Cl)ccc1Cl)Nc1cccc(S(=O)(=O)N2CCOCC2)c1,2,-7,9,3856,x,1.3,-13
COc1ccc(NC(=O)c2ccc(CNS(=O)(=O)c3cccc(OC)c3)cc2)cc1,-2,x,x,2867,3,-1.5,-2
CS(=O)(=O)N(CC(=O)NCCSc1ccc(Cl)cc1)c1ccc2c(c1)OCO2,-14,x,x,5553,1,-2.5,-21
Cc1cccc(NC(=O)CN2CCN(C(=O)c3ccc(OCc4cn5ccccc5n4)cc3)CC2)c1C,2,7,7,u,x,0.1,x

The results go on:
molecule,Sa ugtP lethal,Mtb hypoxia rep,Mtb hypoxia rep growth,Autofluor counter,BJeLR lethal,Sa RN4220 lethal,PrP UTR inh
CC(=O)/C=C(/C)NC(Cc1c[nH]c2ccccc12)C(=O)O (stereo not given),-7,x,x,12587&2857,0&3,1.4,-3&-10
COc1cccc(C=NNc2nc(C)cc(=O)[nH]2)c1OC,12,-4,-2,x,x,-1.2,x
CCn1cnc2sc(C(=O)N3CCN(c4ccc(OC)cc4)CC3)c(C)c2c1=O,12,-2,3,8681,-23,2.1,4
Cc1c(C(=O)NC2CCN(Cc3ccccc3)C2)oc2c(Cl)cccc12 (stereo not given),-2,-6,14,6120,-5,-0.1,3
Cc1ccc(C(=O)O/N=C(\N)c2ccccn2)cc1,-1,3,-5,5517,3,2.9,87*
